Source: PubChem BioAssay
Rce1 inh: blocks yeast Ras-converting enzyme. yeast membranes, quenched prenylated peptide cleavage fluorescence. calls only. 290,000 compounds, 0.27% hits. AID 2563;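 active = fall in fluorescence gain of 50% or more versus controls, with final raw signal at or below 3038400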;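 also: plate controls were neutral control wells for no effect and wells lacking membranes for full effect; tested at 10 µM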
Target sequence (Q03530 whole entry, looked up): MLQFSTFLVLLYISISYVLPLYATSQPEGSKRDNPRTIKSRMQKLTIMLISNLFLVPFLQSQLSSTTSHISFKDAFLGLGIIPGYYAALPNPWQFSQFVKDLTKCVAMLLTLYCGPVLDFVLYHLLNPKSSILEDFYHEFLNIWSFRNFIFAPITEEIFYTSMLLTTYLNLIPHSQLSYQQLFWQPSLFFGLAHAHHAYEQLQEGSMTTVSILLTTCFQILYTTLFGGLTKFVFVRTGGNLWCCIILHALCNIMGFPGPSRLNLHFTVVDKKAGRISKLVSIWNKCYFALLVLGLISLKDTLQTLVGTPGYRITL
PABP polyA inh: blocks human PABP binding to poly(A) RNA; fluorescence polarization; inhibition, % at 35 µM; 290,000 compounds, 1% hits; AID 2014;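 active = 50% or more with normal probe brightness, or confirmed in later tests; about a fifth of its hits are not listed in these tables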;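 also: calls also rest on retests at 20 µM and on dose response follow-up; controls were probe without protein and protein plus probe with vehicle; some compounds called inactive have numbers as strong as hits; many hits fall short of the cut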
eIF4H FP inh: inhibitors of RNA binding by human eIF4H | 290,000 compounds, 0.94% hits | eIF4H fluorescence polarization binding assay | AID 2012 | inhibition, % at 35 µM;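 active = 50% or more with normal probe brightness, or confirmed in later tests; about a fifth of its hits are not listed in these tables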;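 also: calls also rest on retests at 20 µM and on dose response follow-up; 0% = protein and probe with vehicle and 100% = probe without protein; strong numbers were not always called active; many hits fall short of the cut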
HIV Env fusion: blocks HIV Env-driven cell-cell fusion. HeLa-JRFL Env/CEM21 cell fusion, luciferase. inhibition, % at 12.3 µM. 360,000 compounds, 1.1% hits;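 active = mean replicate inhibition score of at least 50 and every replicate individually at or above 50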;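 also: 0% = plate neutral controls and 100% = maraviroc near 300 nM; one replicate is shown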
UUG fidelity: alters start codon recognition fidelity in yeast; S. cerevisiae UUG-firefly luciferase reporter, luminescence/redox ratio; 350,000 compounds, 0.13% hits; activity score, % at 18.7 µM;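 active = replicate mean at a twofold rise or more, about +100% in these data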;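 also: firefly luciferase made from a UUG start codon reports start codon fidelity; reporter light over untreated wells divided by growth signal over untreated wells; some hits fall short of that in this replicate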
CSC inhib: cancer stem cell inhibition | cancer stem cell-like cells viability, luminescence | inhibition, % at 7.5 µM | 300,000 compounds, 1.1% hits | AID 2717;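 active = mean at 75% or more and at least half the replicates too; tested in HMLE shEcad cells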;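 also: 0% = median of negative and 100% = median of positive control wells; the first replicate is given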
MT1-MMP act inh: MT1-MMP (human) activation inhibition. AID 651647. 360,000 compounds, 0.061% hits. GFP/RFP ratio change, % at 20 µM. HT1080 RFP-PRO-GFP cells, GFP/RFP ratio fluorescence, overnight; percent of plate control window, DMSO zero;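 active = GFP/RFP ratio change of at least 30% with cell ATP level not reduced by more than half and red fluorescence within 50% of control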; also: strong numbers were not always called active
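Test system: HT1080 cells expressing an RFP-PRO-GFP fluorescent reporter construct / Compound dosing: single-point 20 µM compound, 1% DMSO / Schedule: cells overnight before dosing, compound overnight, 37 °C, 5% CO2 / Evaluation: GFP/RFP fluorescence ratio / Control set: DMSO and RFP-L50D-GFP cell wells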
MT1-MMP act inh RFP: also measured in MT1-MMP act inh; calls as there; RFP signal change, %; measured here: RFP expression control read;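 0 = vehicle wells; hits needed this value within 50% of zero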
* hit, by the source's call; i = inactive; . = not tested or not shown; + = active, no number; [ ] = remark or other dose.

Molecule,Rce1 inh,PABP polyA inh,eIF4H FP inh,HIV Env fusion,UUG fidelity,CSC inhib,MT1-MMP act inh,MT1-MMP act inh RFP
COc1ccc(C(=O)N2CCCCC2c2cc(C(=O)NCc3ccc(Cl)c(Cl)c3)no2)cc1 (stereo not given),.,.,.,-1,0,.,-1,-12
O=C(COC(=O)CCCN1C(=O)c2cccc3cccc(c23)C1=O)NC1CCS(=O)(=O)C1 (stereo not given),.,.,.,-8,-14,.,5,3
CC(=O)N1CCOc2ccc(S(=O)(=O)Nc3ncccc3C)cc21,i,10,-2,-2,-7,-21,0,2
Cn1c(SCc2ccccc2C#N)nnc1-c1ccncc1,i,-2,0,3,-13,-11,0,1
O=C(OCCN1C(=O)c2ccccc2C1=O)c1cc(S(=O)(=O)N2CCOCC2)ccc1Cl,i,0,1,.,13,-9,5,5
CCOC(=O)/C(C#N)=C/c1cc(C)n(-c2ccc(C)cc2)c1C,i,1,-4,.,-31,32,-1,-10
O=C(NCCNc1cc(Cl)ccc1[N+](=O)[O-])c1ccco1,i,37,-6,-4,-3,2,2,2
COc1ccc(C(c2nnnn2C2CCCC2)N2CCN(c3ccccc3)CC2)cc1 (stereo not given),i,-2,0,.,4,13,2,-11
Cn1c(N)c(C(C[N+](=O)[O-])c2ccccc2Cl)c(=O)n(C)c1=O (stereo not given),i,.,.,-8,-19,20,-2,-4
C=CCn1c2ccccc2c(=O)c2cc(C#CC[C@@H](C)O)ccc21,.,.,.,-133,-6,23,.,.
CC1CCCCC1NC(=O)CCS(=O)(=O)c1ccc(Cl)cc1 (stereo not given),.,.,.,.,-5,-3,3,-2
COc1ccc2c(c1)CCc1c(C(=O)N3CC4(C)CC3CC(C)(C)C4)noc1-2 (stereo not given),i,-6,-6,45,8,95*,-8,-5
C/C(=N\NC(=O)c1ccc([N+](=O)[O-])cc1)c1cc2ccccc2oc1=O,i,0,9,-2,-28,8,2,-2
CCOc1ccc(CCNC(=O)CSCC(=O)Nc2ccc(OC)cc2)cc1OCC,.,.,.,.,5,-20,0,0
Cc1ccc(S(=O)(=O)/N=C(/Nc2ccc(F)cc2F)c2ccccc2)cc1,i,.,.,12,-10,-11,0,-4
COc1ccc(S[C@@H](CCN2CC[C@H](C)CCC2=O)c2ccccc2)cc1,.,.,.,32,3,12,-3,-15

Some of these compounds in order of their number in UUG fidelity, ascending:
structure	Rce1 inh	HIV Env fusion	UUG fidelity	MT1-MMP act inh	MT1-MMP act inh RFP
CCOC(=O)/C(C#N)=C/c1cc(C)n(-c2ccc(C)cc2)c1C	i	.	-31	-1	-10
Cn1c(SCc2ccccc2C#N)nnc1-c1ccncc1	i	3	-13	0	1
CC1CCCCC1NC(=O)CCS(=O)(=O)c1ccc(Cl)cc1 (stereo not given)	.	.	-5	3	-2

Following part:
Molecule,Rce1 inh,PABP polyA inh,eIF4H FP inh,HIV Env fusion,UUG fidelity,CSC inhib,MT1-MMP act inh,MT1-MMP act inh RFP
O=C(NCC1CCCCC1)c1cc(S(=O)(=O)N2CCCCC2)ccc1N1CCOCC1,i,-4,-8,-15,-1,10,3,0
Cc1cc(NC(=O)Nc2cccc(Cl)c2)no1,.,.,.,-1,-10,.,2,0
Cc1cc(C)c2c3c(c(-c4ccccc4)n2n1)c(=O)n(C)c(=O)n3C,.,.,.,-19,-6,.,-10,-3
COc1cccc(-c2ccc(-c3noc(-c4ccccc4F)n3)c(OC)n2)c1,+,-7,-6,-11,-9,32,-3,0
CC(C)(C)OC(=O)N(Cc1ccccc1)Cc1ccc(OCc2cccc(NC(=O)c3ccccc3)c2)cc1,.,.,.,9,-23,.,-3,-17
CC(C)(C)c1cc(CCC(=O)NCC2CCCO2)cc(C(C)(C)C)c1O (stereo not given),i,6,13,6,9,-7,-4,-1
C=C(C)CN(CC)C(=O)CSc1nc2ncc(Cl)cc2[nH]1,i,-1,-7,1,-11,12,-11,-5
COc1ccc(Cl)cc1NC(=O)C1CCCN(c2ncnc3c2nc2n3CCCCC2)C1 (stereo not given),i,11,-12,14,5,39,2,-5
COc1ccc(C(C)=O)cc1COc1ccccc1[N+](=O)[O-],i,-4,-6,-12,.,.,-2,0
COC(=O)C/C=C/[C@@H](C)[C@@H](/C=N/OC[C@H]1O[C@H](c2ccccc2)C=C[C@@H]1Oc1ccc(OC)cc1)NS(=O)(=O)c1ccc(C)cc1,i,5,5,.,.,.,.,.
Cc1nnc(NC(=O)C2CCN(c3cnccn3)CC2)s1,i,-1,4,-20,2,-2,4,0
NC(=O)c1ccc(NC(=O)COC(=O)c2ccc3ccccc3n2)cc1,.,.,.,16,-12,-15,-4,0
COc1cc(Cl)c(C)cc1NC(=O)c1cccc(OC)c1OC,i,-1,2,-34,-16,67,1,-4
COC(=O)c1cccc(S(=O)(=O)N2CCC(NC(=O)NC34CC5CC(CC(C5)C3)C4)CC2)c1,i,-9,-3,-5,-9,-14,7,-12
N#Cc1cc2c(nc1SCc1ccccc1)CCC2,.,-6,-7,0,.,7,4,7
Cc1cc(C(C)(C)C)cc(C)c1CCNC(=O)c1c(C)noc1C,.,.,.,0,3,.,-4,-17
Oc1c(Cl)cc(Cl)cc1CNn1cnnc1,i,-3,8,-20,.,-10,1,2
CCOc1ccc(Cl)cc1S(=O)(=O)NCc1ccccn1,i,-3,16,7,.,-8,0,2
Cc1ccc(CNC(=O)CN(C)S(=O)(=O)c2ccc(F)cc2)cc1,.,.,.,-8,.,14,5,1
CNC(=O)Nc1ccc2nc(C)sc2c1,i,-4,-3,-29,.,9,0,0
O=C(CSc1nnc(-c2cccc(S(=O)(=O)N3CCCC3)c2)n1-c1ccccc1)Nc1ccc(C(=O)O)cc1,i,5,2,7,-10,1,1,3
N#CC1c2ccccc2C=CN1C(=O)N(c1ccccc1)c1ccccc1 (stereo not given),.,.,.,-19,-27,.,-18,-22
NC(c1ccc(F)c(F)c1)c1nc(-c2cncnc2)cs1 (stereo not given),.,.,.,4,-11,.,4,-1
CCCNS(=O)(=O)c1ccc(NC(=O)Cc2cccs2)cc1,i,-2,7,.,-20,7,1,1
COc1cccc(NC(=O)COC(=O)CCn2c(C)csc2=O)c1,i,.,.,14,-9,1,-2,3
COc1cccc(C(=O)OCn2nnc3ccccc3c2=O)c1,i,-2,0,.,2,-8,4,6
O=C(CCC(=O)c1ccc(F)cc1)Nc1ccccc1Cl,i,0,-9,-1,.,-5,1,0
CC(N=C1NS(=O)(=O)c2ccccc21)C(=O)N1CCc2ccccc2C1 (stereo not given),i,-7,-8,-20,-9,-9,0,7
Cc1onc(-c2c(Cl)cccc2Cl)c1C(=O)N1CCOCC1,i,9,-6,-7,0,-10,2,-7
Cc1nn(-c2ccccc2)c(Cl)c1C(=O)Nc1nnc(C2CCCCC2)s1,i,-3,-2,-46,-17,6,-8,-5
COc1ccc(C(=O)NC(=S)Nc2ccc([N+](=O)[O-])cc2C)cc1OC,.,-17,-8,.,-7,0,3,-1
COc1ccc(OC)c(NC(=O)C(=O)NNC(=O)c2cccs2)c1,i,16,-3,3,.,-7,4,6
O=C(Nc1ccccc1)C1=C[C@H](c2ccc(C(F)(F)F)cc2)C[C@H](OCc2ccc(CO)cc2)O1,i,-14,-19,-5[16.7 µM],15,50,.,.
COC(=O)C(C)(C)ONC(=O)Nc1ccccc1Cl,i,18,-10,0,.,3,6,3
C=CCN(CC=C)C(=O)Cc1ccc(F)cc1,i,-9,-11,-87,-22,-21,-4,-3
COc1ccc(S(=O)(=O)c2c(O)c3ccc(C(=O)Nc4ccccc4)cc3[nH]c2=O)cc1,i,20,-6,-1,-13,8,-1,-5
Cc1cc(Br)ccc1OCC(=O)NC1CCCC1,i,-3,-13,-4,-8,0,-3,-25
COC(=O)CCSCC(=O)N1N=C(c2ccc(Br)cc2)CC1c1cccc(OC)c1OC (stereo not given),i,6,-7,11,.,3,0,-3
O=C(CSc1ncccn1)NCc1ccccc1Cl,i,8,1,-79,.,-2,1,10
CC(=O)C12CCCCC1CC1C3CC(C)C4(O)CC(=O)CCC4(C)C3CCC12C (stereo not given),i,-4,-9,-3,-15,41,1,6
CC(=O)n1nc(-c2ccccc2)nc1NCc1ccc(N(C)C)cc1,i,-12,-6,-15,-11,-2,4,2
CC(C)(C)C(=O)Nc1ccc2c(c1)-c1cc(NC(=O)C(C)(C)C)ccc1C2,i,2,-6,-21,-5,-5,6,2
COc1ccccc1C1CC(=O)n2c(nc(-c3ccccc3)c2-c2ccccc2)S1 (stereo not given),i,0,-12,-12,.,33,-3,-3
Cc1nc(-c2cccc(S(=O)(=O)N3CCC(C)CC3)c2)cs1,i,5,9,.,5,3,2,-6
CC(C)(Cc1nc2ccccc2[nH]1)c1nc2ccccc2[nH]1,.,.,.,-176,-20,.,-3,3
Oc1ccc2ccccc2c1CN1CCN(c2ccccc2)CC1,i,8,5,-109,-9,-5,-2,2
CS(=O)(=O)N1CCN(c2ccccc2NC(=O)c2ccc(Br)o2)CC1,i,5,-17,.,-11,9,-3,-3
Cc1ccc(CCNC(=O)C2CCCN(C(=O)N(C)C)C2)cc1 (stereo not given),i,1,-8,.,-35,-9,4,6
CCOC(=O)[C@@H]1[C@H]2COc3cc(OC)ccc3[C@@H]2N2C(=O)N(c3ccc(Br)cc3)C(=O)[C@@]12C,i,1,-9,-5,-5,-14,1,-4
Cc1ccccc1C(=O)NC1CC2CCCC(C1)N2Cc1ccccc1Cl (stereo not given),.,.,.,-3,-16,.,3,6
O=C(COC(=O)c1n[nH]c(=O)c2ccccc12)c1ccc(Cl)cc1,i,-14,-4,.,.,-4,0,7
CC(OC(=O)COc1ccc(C#N)cc1)C(=O)Nc1ccc(Cl)cn1 (stereo not given),i,.,.,-8,8,-12,-2,2
Cn1nnnc1SCC(=O)N(C1CCCCC1)C1CCCCC1,i,9,-2,.,6,8,-8,5
Cc1cccc(C(=O)NC(C)C2CC3CCC2C3)c1 (stereo not given),i,.,.,-2,-6,1,0,4
O=C1N(c2ccccc2C(F)(F)F)O[C@]1(c1ccccc1)C1CCCCC1,.,.,.,18,-14,70,12,0
O=C(COC(=O)c1ccc2c(c1)OCO2)Nc1ccccc1,i,-8,-6,15,.,.,3,7
O=C(COC(=O)c1cn(-c2ccccc2)nc1-c1ccccc1)c1cccc([N+](=O)[O-])c1,i,4,4,-24,-11,42,0,5
Cc1ccc(NC(=S)N(CCCN2CCC(C)CC2)Cc2ccco2)cc1C,i,8,5,-2,-21,14,7,3
